Screens deposited in PubChem by National Center for Advancing Translational Sciences (NCATS).
TRPML1 ag = qHTS for Agonists of the Human Mucolipin Transient Receptor Potential 1 (TRPML1). TRPML1-expressing cells, Ca2+ dye fluorescence, FDSS; host cell line not named in the record; reference of the full effect not given here. activation, % (concentration not given with the values). 0.12% of 410,000 active; in the data active = activation above about 50%; inconclusive = about 30% to 50%; inactive = below about 30%; note: 0% is about no effect; the text of the record puts the active cut at 80%
Target sequence (Q9GZU1 whole entry, looked up): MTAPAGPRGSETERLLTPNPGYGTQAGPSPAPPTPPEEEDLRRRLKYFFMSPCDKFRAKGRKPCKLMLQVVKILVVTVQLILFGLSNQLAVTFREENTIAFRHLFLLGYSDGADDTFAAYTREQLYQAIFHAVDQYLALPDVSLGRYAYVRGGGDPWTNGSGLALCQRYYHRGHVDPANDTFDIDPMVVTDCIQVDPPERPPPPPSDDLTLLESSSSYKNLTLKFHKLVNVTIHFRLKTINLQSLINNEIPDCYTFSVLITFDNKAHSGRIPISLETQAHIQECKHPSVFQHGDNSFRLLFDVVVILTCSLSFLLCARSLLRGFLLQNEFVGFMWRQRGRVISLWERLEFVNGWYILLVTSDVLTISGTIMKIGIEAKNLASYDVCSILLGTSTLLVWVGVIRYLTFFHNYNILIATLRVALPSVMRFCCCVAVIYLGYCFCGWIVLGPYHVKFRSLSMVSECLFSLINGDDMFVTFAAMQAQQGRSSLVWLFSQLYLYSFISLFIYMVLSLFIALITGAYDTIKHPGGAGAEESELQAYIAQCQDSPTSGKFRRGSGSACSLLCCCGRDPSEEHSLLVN
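Tetracycline-induced TRPML1-DL cells are seeded and incubated overnight before loading with a no-wash Ca2+ dye and quencher. Agonist activity is taken from the 110 s fluorescence read following compound pin-transfer on an FDSS, before EC80 54-4 challenge.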
D2 potentiator = Beta-Arrestin HTS for Positive Allosteric Modulators of the Human D2 Dopamine Receptor: Potentiators; 0.23% of 360,000 active; D(2) dopamine receptor (Homo sapiens), P14416; DiscoveRx D2 beta-arrestin cells, luminescence, 90 min; 100% = 57 uM dopamine signal; potentiation, % (test concentration not listed); active = potentiation of 50% or more; inconclusive = 30% to 50%; inactive = 30% or less;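 note: compound concentration not given in the record; tested on top of an EC20 dose of dopamine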
Target sequence (P14416 whole entry, looked up): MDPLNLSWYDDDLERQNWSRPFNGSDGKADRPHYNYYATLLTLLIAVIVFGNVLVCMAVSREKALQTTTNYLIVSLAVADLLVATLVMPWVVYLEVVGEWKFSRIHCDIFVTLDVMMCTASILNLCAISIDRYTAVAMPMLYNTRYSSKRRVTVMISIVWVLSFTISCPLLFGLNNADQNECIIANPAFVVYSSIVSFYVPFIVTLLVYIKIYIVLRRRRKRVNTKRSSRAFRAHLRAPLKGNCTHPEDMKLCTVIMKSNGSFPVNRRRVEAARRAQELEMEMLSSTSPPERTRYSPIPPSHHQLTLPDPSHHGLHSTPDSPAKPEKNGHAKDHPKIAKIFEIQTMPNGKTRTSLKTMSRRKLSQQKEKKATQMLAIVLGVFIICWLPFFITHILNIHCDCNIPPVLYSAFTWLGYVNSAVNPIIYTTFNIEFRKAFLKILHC
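D2 cells co-treated with compound plus 50 nM dopamine (EC20) for 90 min at 37 deg C to detect potentiation. Beta-arrestin recruitment was read as enzyme-fragment luminescence after 1 h at ambient temperature. Full response was set by 57 uM dopamine.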
Six1-Eya2 blk = qHTS Assay for Inhibitors of the Six1/Eya2 Interaction; Homeobox protein SIX1 (Homo sapiens) + Protein phosphatase EYA2 (Homo sapiens), …; AlphaScreen GST-Six1/His-Eya2 binding, biochemical; hits give low values; control for the full effect not named in the record; activity change, % (concentration not given with the values); 0.56% of 360,000 active; AID 651725, 2012; in the data active = activity change below about -65%; inconclusive = about -30% to -65%; inactive = above about -30%; note: % is set by controls: 0 for no effect and ±100 for the full control effect
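Compounds are tested against tagged Six1 and Eya2 proteins bridged by glutathione donor and nickel acceptor beads; after a one-hour incubation at 37 °C without light, AlphaScreen emission is recorded.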
PINK1 modulator = A Quantitative High throughput Screen to Identify Chemical Modulators of PINK1 Expression; 0.2% of 410,000 active; AID 624263, 2012; PINK1 immunofluorescence, high-content cytometry, 24 h; Potency, µM (doses to about 76.6 µM), for inactives: top-dose activation (PINK1 increase), hits mostly activators; active = well fitted activation curve with a large enough effect; inconclusive = small, poorly fitted or top-dose-only effect; inactive = flat fitted curve, though single readings scatter; cell line not stated here;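 note: potency is the fitted concentration of half-maximal effect; % of control where 0% means no effect; nearly all actives have a fitted effect of over 65% in size; a mitochondrial uncoupler was the plate control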
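Decision-based qHTS: stable cells, 24 h exposure to five compound concentrations, CCCP as control. Fixed cells stained for PINK1 plus nuclear, mitochondrial and cell markers, cytometer read.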
D2 ag = Beta-Arrestin HTS for Positive Allosteric Modulators of the Human D2 Dopamine Receptor: Agonists; 0.084% of 360,000 active; D(2) dopamine receptor (Homo sapiens), P14416; DiscoveRx PathHunter D2 beta-arrestin, luminescence, 90 min; 100% = 57 uM dopamine signal; activation, % (concentration not given with the values); in the data active = activation above about 40%; inconclusive = about 15% to 40%; inactive = below about 15%; note: compound concentration not given in the record; the text of the record calls up to 30% inactive
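Agonist mode: compounds alone added to overnight-plated D2 PathHunter cells for 90 min at 37 C, with 57 uM final dopamine (EC100) defining full response. Beta-arrestin recruitment detected by chemiluminescent reagent, read after 1 h at ambient temperature.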
CtBP-E1A blk = qHTS Assay for Inhibitors of the CtBP/E1A Interaction; AID 651724, 2012; CtBP / adenovirus E1A interaction (AlphaScreen); 0.49% of 340,000 active; activity change, % (concentration not given with the values); AlphaScreen GST-E1A/His-CtBP binding, 1536-well; hits give low values; control for the full effect not named in the record; in the data active means activity change below about -65%; inconclusive means about -30% to -65%; inactive means above about -30%; note: % is set by controls: 0 for no effect and ±100 for the full control effect
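Homogeneous bead-based format: GST-tagged E1A captured on glutathione donor beads, His-tagged CtBP on nickel acceptor beads; compounds precede bead addition by 2 h at 37 °C.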
Active calls of the source: *; ? = inconclusive; nt = no result given; [ ] = remark or other dose.

canonical_smiles | TRPML1 ag | D2 potentiator | Six1-Eya2 blk | PINK1 modulator | D2 ag | CtBP-E1A blk
CCCCCCCNC1=CC(=O)CC(c2ccccc2)C1 (configuration not stated) | 1.1 | -5 | -2 | 40µM* | -2.2 | 4
C[n+]1c(-c2ccccc2)cc2c(=Cc3ccc([N+](=O)[O-])cc3)c3ccccc3n21 | 0.0 | 13 | ? | 4.5µM* | 11 | 37
COC(=O)CC1COc2ccccc2N1C(=O)c1ccc(Br)cc1 (configuration not stated) | 0.0 | -6 | -7 | -0.4% | -4.1 | 4
CC(C(c1ccc2c(c1)OCO2)c1c(N)n(C)c(=O)n(C)c1=O)[N+](=O)[O-] (configuration not stated) | 0.2 | -7 | 6 | -0.9% | -4.5 | 2
O=C(CN1CCN(Cc2ccccc2Cl)C1=O)NC1CCCCCCC1 | 0.9 | 5 | 11 | 0.9% | -1.2 | 3
C=CCn1c(O)c(N=O)c2ccccc21 | 0.2 | -6 | 0 | 1.4% | -8.1 | -1
O=C(O)c1sc2ncccc2c1OCc1ccccc1 | 0.0 | 2 | 12 | 1.8% | 0.2 | -3
COc1ccc(NC(=O)CCOc2ccccc2C)cc1S(=O)(=O)N1CCCCC1 | 1.4 | -13 | 2 | -2.6% | 1.5 | -2
CCc1ccc(OCC(O)CN2CCN(CCO)CC2)cc1 (configuration not stated) | 1.1 | -8 | -1 | 0.0% | -1.8 | 0
O=c1[nH]c2ccc(Cl)cc2c(=O)n1Cc1ccco1 | 0.9 | -6 | -7 | 7.1% | -2.6 | 4
O=C(O)c1ccc(CNC(=O)c2ccc(Br)o2)cc1 | 2.2 | -2 | 1 | 1.7%[38.3 µM] | -2.4 | 9
CCOC1=C2[C@@H](CN(S(=O)(=O)c3ccc(C)cc3)[C@H]2c2ccc(Cl)cc2)[C@H]2C(=O)N(c3ccccc3)C(=O)[C@H]2C1 | 0.0 | -2 | -10 | 0.7% | -5.4 | 1
C/C=C/c1cccc(-c2nc(C(=O)N3CCCCC3)cc3c2[C@H](CCO)N(C(=O)NC(C)C)C3)c1 | -0.2 | nt | -4 | 3.9% | nt | 4
COc1ccccc1N(C)S(=O)(=O)c1ccc(C(=O)Nc2ccncc2)cc1 | 5.9 | -3 | -1 | 6.7% | -0.2 | -2
C#C[C@]1(O)CC[C@H]2[C@@H]3CCc4cc(OC)ccc4[C@H]3CC[C@@]21C | -0.6 | 8 | -1 | 3.6% | -7.3 | 4
O=C(O)c1cccc(N2C(=O)c3cc([N+](=O)[O-])cc4cc([N+](=O)[O-])cc(c34)C2=O)c1 | -0.3 | -14 | -75* | 0.8% | -5.5 | -68*
CCOc1ccc(NC(=S)Nc2ccc(C)c([N+](=O)[O-])c2)cc1 | -0.6 | -10 | -11 | 5.1%[38.3 µM] | -3.4 | -8
O=C(c1ccc(Br)o1)N1CCN(Cc2ccccc2Cl)CC1 | 2.1 | -1 | -9 | 0.3% | -0.8 | -1
O=C(NCc1cccc(C(F)(F)F)c1)c1ccc2sc([C@@H]3O[C@H](CO)[C@@H](O)[C@H]3O)nc2c1 | -0.5 | -3 | 1 | 0.5% | 0.6 | 0
O=C(COC(=O)c1cc(S(=O)(=O)N2CCCCC2)ccc1N1CCOCC1)c1ccc(Cl)cc1 | 0.9 | -3 | -2 | 4.1% | -4.8 | -7
O=C1c2ccccc2CN1C(CO)Cc1ccccc1 (configuration not stated) | nt | 3 | 1 | -0.3% | -6.1 | 2
O=C(NC1CCCCCCC1)c1ccc(Br)cc1 | 2.6 | -9 | 8 | 7.8% | 0.5 | 5
COc1ccc(S(=O)(=O)N2CCCCC2c2cc(C(=O)Nc3ccc(F)c(Cl)c3)no2)cc1 (configuration not stated) | 0.6 | -8 | 1 | -1.2% | 1.4 | -3
Cc1ccc(NCCNc2ccc(C)cc2)cc1 | -0.1 | -7 | ? | 5.0%[38.3 µM] | -1.3 | ?
CCN(CC)C(=O)c1sc2nc(-c3ccccc3)ccc2c1N | -0.7 | -6 | 9 | 0.6% | -6.5 | 17
Cc1cc(C(=O)O)ccc1-c1ccc(/C=N/n2cnnc2)o1 | 2.5 | 2 | 6 | -0.4% | 6.1 | 4
CC(C)c1ccc(NC(=O)C(=O)C2C(=O)Nc3ccccc32)cc1 (configuration not stated) | 1.9 | -6 | 21 | 4.6% | -4.5 | nt
COC(=O)C1=C(C)NC(C)=C(C(=O)OC)C1c1ccc(N(C)C)cc1 | 0.1 | -12 | -19 | 20%[38.3 µM] | -3.7 | -13
CCc1nc(Nc2cc(OC)ccc2OC)c2oc3ccccc3c2n1 | 1.9 | -5 | 13 | 14% | -1.6 | 5
CCCCCC(=O)C(=O)c1ccc(O)cc1O | 4.7 | -7 | 4 | 0.7% | -3.0 | nt
CCCCSc1nc(C)cc(SCC(=O)N/N=C/c2cccc(OC)c2O)n1 | 0.2 | 22 | ? | -1.8% | -0.3 | ?
COc1ccc(CNC(=O)C2(CC3CC(c4ccccc4)=NO3)CCN(C(=O)C3(C)CC3)CC2)cc1 (configuration not stated) | 0.0 | -6 | 14 | -0.1% | 0.5 | -17
C=CCn1c(SCC(=O)Nc2ccc(O)cc2)nc2sc(CC)cc2c1=O | 2.3 | -2 | -9 | 0.2% | 2.4 | -10
CCOC(=O)N1CCC(NC(=O)Cn2nc(Cc3ccncc3)c3ccccc3c2=O)CC1 | -0.5 | -6 | 3 | 1.6% | -4.5 | -3
O=C(CCCOc1ccccc1)Nc1ccc(Cl)c(S(=O)(=O)N2CCOCC2)c1 | 2.1 | 4 | -1 | 2.3% | 0.9 | 0
N/C(=N\OC(=O)c1ccc2c(c1)OCO2)c1ccc(Br)cc1 | -0.7 | 24 | -9 | 6.5% | ? | -9
Cc1csc(NC(=O)CN2C(=O)c3ccccc3C2=O)c1C(N)=O | 0.6 | 6 | -3 | 1.4% | 4.8 | nt
Cc1cccc(N2CCN(c3ccc4cc(S(=O)(=O)N5CCCCC5)ccc4n3)CC2)c1C | 1.1 | -5 | 2 | -0.1% | -10 | 3
N#CCCn1c2ccccc2c2nc3ccccc3nc21 | -0.9 | -13 | 5 | 7.4% | -14 | 7
COc1ccc(S(=O)(=O)N(CC(=O)N2CCN(c3ccccc3OC)CC2)c2ccccc2)cc1 | -0.7 | -1 | -10 | -1.2% | -0.6 | -8
CCCn1c(CCC(=O)O)ccc1-c1ccc(OC)cc1 | 0.6 | -2 | -4 | nt | 1.1 | 10
Cn1c(C(=O)N2CCOCC2)cnc1Sc1ncc(C(F)(F)F)cc1Cl | -0.1 | -14 | -1 | -0.3% | -0.9 | 3
CCOC(=O)[C@H]1[C@H]2COc3ccc(Cl)cc3[C@@H]2N2C(=O)CN(CC3CCCO3)C(=O)[C@@]12C (some centres not stated) | -0.7 | -1 | 1 | 1.7% | 0.2 | 4
O=C1NC[C@@H](Cc2cccc3ccccc23)N(CCc2cccc(F)c2)C1=O | -0.7 | nt | 11 | -1.3% | nt | -2
CCOC(=O)c1sc2nc(CSc3nc4ccccc4n3CC)[nH]c(=O)c2c1C | 4.1 | -5 | -2 | -2.4% | -0.4 | 7
COc1ccc(S(=O)(=O)N2CCC[C@H]2C(=O)N2CCC[C@H]2C(=O)NCc2ccc(F)cc2F)cc1C | -1.2 | nt | 5 | 1.1% | nt | 7
CCCCCOC(=O)C1=C(C)NC(=O)NC1c1ccc(OC)cc1 (configuration not stated) | 0.1 | -3 | 4 | 1.0% | 3.6 | 1
C[C@@H]1CN([C@H](C)CO)C(=O)CCCn2nncc2CO[C@@H]1CN(C)C(=O)C1CC1 | -0.6 | -12 | 12 | 3.0% | -5.1 | -8

Single records (already shown):
Entry for N#CCCn1c2ccccc2c2nc3ccccc3nc21 → TRPML1 ag: -0.9; D2 potentiator: -13; Six1-Eya2 blk: 5; PINK1 modulator: 7.4%; D2 ag: -14; CtBP-E1A blk: 7
Entry for COc1ccc(S(=O)(=O)N(CC(=O)N2CCN(c3ccccc3OC)CC2)c2ccccc2)cc1 → TRPML1 ag: -0.7; D2 potentiator: -1; Six1-Eya2 blk: -10; PINK1 modulator: -1.2%; D2 ag: -0.6; CtBP-E1A blk: -8

The list continues:
canonical_smiles | TRPML1 ag | D2 potentiator | Six1-Eya2 blk | PINK1 modulator | D2 ag | CtBP-E1A blk
NC(=O)Cn1c(=O)n(CCC(=O)Nc2ccc(F)cc2)c(=O)c2sccc21 | -0.4 | -1 | 4 | 0.9% | -4.1 | 2
O=C(Nc1ccc(OCC(F)(F)C(F)F)cc1)c1ccncc1 | -0.2 | -1 | -1 | 1.0% | 0.9 | -1
Oc1ccc(N2CCN(Cc3c(-c4ccccc4)nc4ccccn34)CC2)cc1 | 1.9 | 15 | -23 | -1.7% | 5.1 | -21
O=C(Nc1ccc(Oc2ccccc2)cc1)c1ccco1 | -0.6 | 12 | -3 | -0.3% | 0.4 | 1
CC(=O)c1c(C)[nH]c(C(=O)COC(=O)c2ccc(C)s2)c1C | 0.0 | -2 | 8 | 0.6% | 6.8 | 0
O=C(O)C1=C[C@@H](c2ccc3c(c2)OCO3)C[C@@H](OCc2ccc(CO)cc2)O1 | -0.2 | -36 | 6 | 1.1% | 1.2 | -1
CC(C(=O)NC1C(=O)N2C(C(=O)O)=C(CSc3nnnn3C)CSC12)n1cc(Cl)cn1 (configuration not stated) | 0.6 | -9 | -1 | -1.0% | 4.4 | 6
Cc1cc(OC(C)C(=O)NCC(O)c2ccccc2)c2c(C)c(C)c(=O)oc2c1 (configuration not stated) | 0.2 | -12 | -1 | 0.5% | -6.9 | -8
COc1ccc(NC(=O)C2CCCN2S(=O)(=O)c2ccc3c(c2)CC(C)N3C(C)=O)cc1OC (configuration not stated) | -0.8 | -7 | -1 | -0.3% | -0.9 | 3
O=c1[nH]cnc2nc3n(c12)CCCCC3 | -0.5 | -6 | 5 | 1.1% | -1.4 | -7
NC(=O)/C(=C\c1ccco1)NC(=O)c1ccc(Br)o1 | 0.9 | -2 | -10 | -1.1% | 0.9 | -2
COc1ccc(CSc2nc(C)cc(=O)[nH]2)cc1Br | 2.1 | 0 | -1 | 9.9%[38.3 µM] | -1.2 | 1
CC(C)(C)c1ccc(C(=O)NCC(=O)OCC(=O)c2ccc3c(c2)-c2ccccc2C3)cc1 | 0.5 | -17 | 4 | -2.8% | -4.7 | -7
